Assay outcomes as filed in PubChem.
BmaI1 – BmaI1 acyl-homoserine lactone synthase inhibition – biochemical, fluorescence intensity, with counterscreen (AID 720554). BmaI1 enzyme assay, fluorescence intensity; active compounds read high; test concentration not given here; a few actives read low; strong numbers were not always called active. inhibition, %. hit rate 0.4% among 12,000;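 active = both replicates within 2 robust z-scores of the inhibited control and a quiet counterscreen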;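 note: 0% = uninhibited enzyme and 100% = inhibited control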
BmaI1 counterscreen – further read-out of BmaI1, marked with its call; inhibition, %; measured here: counterscreen; design of the counterscreen not given here;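 first of two replicates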
Numbers without * were called inactive.

SMILES | BmaI1 | BmaI1 counterscreen
CC[C@H]1OC(=O)[C@H](C)C(=O)[C@H](C)[C@@H](O[C@@H]2O[C@H](C)C[C@H](N(C)C)[C@H]2O)[C@](C)(OC)C[C@@H](C)C(=O)[C@H](C)[C@@H]2N(CCCCn3cnc(-c4cccnc4)c3)C(=O)O[C@@]21C | -5.5 | -1.0
Cc1cc(C(=O)OCC(=O)c2ccc(NC(=O)CC(C)C)cc2)no1 | 13.5 | 14.5
O=C(COC(=O)C1CC(O)CN1S(=O)(=O)c1ccc(F)cc1)Nc1nccs1 (configuration not stated) | 11.5 | -2.5
Cc1ccc(/C=C/C(=O)OCc2nc3ccccc3c(=O)n2CC#N)o1 | 17.0 | 7.0
CC(Sc1nnnn1C)C(=O)NC(C)c1ccc(Cl)cc1Cl (configuration not stated) | 18.5 | 10.5
Cc1n[nH]c(=O)c2c(NC(=O)COC(=O)Cc3c(F)cccc3Cl)oc(C)c12 | 22.0 | 9.0
NC1=Nc2ccccc2CC1 | 4.5 | 8.5
NC(=O)SCc1nc2c3ccccc3ncn2n1 | 103.0 | 83.0
Cc1ccc(OCc2nc(SCC(=O)c3ccc(S(=O)(=O)N4CCCC4)cc3)n[nH]2)cc1 | 0.0 | 8.0
CN(C)S(=O)(=O)c1ccc2c(c1)nc(CCC(=O)NCC1CCCCC1)n2C | 6.5 | 0.5
COC(=O)c1ccc(CSc2ncnc3sc(C)c(C)c23)o1 | 20.5 | 17.5
Cc1ccc2cc(CN(C)C3CCS(=O)(=O)C3)c(Cl)nc2c1C (configuration not stated) | 15.0 | 7.0
FC(F)Oc1ccc(N=C2SCC3CCCCN23)cc1 (configuration not stated) | 15.5 | 6.5
CC1Sc2ccc(C(=O)NCc3ccccn3)cc2NC1=O (configuration not stated) | 28.0 | -10.0
CCCc1nc2ccccc2c(C(=O)OCc2nnc(-c3cc(OC)c(OC)c(OC)c3)o2)c1CC | 3.0 | 6.0
CCCNC(=O)Cn1c(=O)cnc2ccccc21 | 13.5 | 14.0
CCn1nc(C(=O)NCCC(C)C)c2ccccc2c1=O | 2.5 | -4.5
C=CCN(C(=O)/C=C/c1ccco1)c1nc(-c2ccccc2)cs1 | 17.5 | 1.0
CN(CC(=O)NC1CCCc2ccccc21)C1CCCCC1 (configuration not stated) | 11.5 | 11.0
O=C1CC(=O)CC2(CCCC2)C1 | -6.5 | 13.5
NCC(=O)CCC(=O)O | -7.5 | 0.0
CC(=O)NCCC(=O)N1CCN(c2cccc(C)c2C)CC1 | 14.0 | 7.0
O=C(COc1ncnc2ccccc12)N1N=C2/C(=C/c3ccco3)CCCC2C1c1ccco1 (configuration not stated) | 7.0 | -5.0
O=C(OCc1cc(=O)oc2cc3c(cc12)CCC3)C1CC(=O)N(Cc2ccco2)C1 (configuration not stated) | 23.5 | 2.0
Cc1ccc(C(=O)NC(C)c2ccc(S(N)(=O)=O)cc2)s1 (configuration not stated) | 8.0 | 8.5
Cc1ccc(-n2c(CCC(=O)OCC(=O)NC3CCS(=O)(=O)C3)nc3ccccc3c2=O)cc1 (configuration not stated) | 12.5 | 11.5
Cc1ccc(C2=NN(C(=O)COC(=O)[C@H](Cc3ccccc3)N3C(=O)c4ccccc4C3=O)C(c3ccco3)C2)cc1 (some centres not stated) | 6.0 | 0.0
CC(C)CN(CC(C)C)C(=O)CSc1nnc(-c2cccc(Cl)c2)n1N | -4.5 | -4.5
CC(C)NC(=O)c1cccnc1Nc1cccc(C(F)(F)F)c1 | 8.5 | 11.5
CCOC(=O)c1oc2ccccc2c1COC(=O)CNC(=O)c1ccc2c(c1)OCO2 | 8.0 | 5.5
O=C(OC(C(=O)c1ccccc1)c1ccccc1)c1ccccn1 (configuration not stated) | 8.0 | -5.5
Cc1cc(C(=O)OCc2cc(=O)oc3cc(C)c(Cl)cc23)c(C)o1 | -6.0 | -3.0
CNC(=O)NC(=O)CN1C(=O)c2ccccc2C1=O | 14.5 | 10.5
CC1CC2C3CCC4=CC(=O)C=CC4(C)[C@@]3(Cl)C(O)CC2(C)C1(O)C(=O)CO (some centres not stated) | 56.5 | 8.5
c1ccc2c(c1)sc1nnc(Sc3ncnc4sc5c(c34)CCCC5)n12 | 17.0 | 6.0
Cc1[nH]c2ccccc2c1C1CC(=O)N(c2ccccc2)C1=O (configuration not stated) | 7.0 | -3.5
CC(C)(C)c1ccc(COC(=O)C2=COCCO2)cc1 | 12.5 | 3.0
Cc1cc(C(F)F)c2c3ccccc3n(C)c2n1 | 22.5 | 12.5
Cn1cnnc1SCc1ccc(C#N)cc1 | 3.0 | 0.5
Cc1noc(C)c1COc1ccc(C(=O)OCC(=O)N(C)C2(C#N)CCCCC2)cc1 | 1.5 | -1.0

7 entries drawn at random from the list so far:
SMILES | BmaI1 | BmaI1 counterscreen
Cc1cc(C(=O)OCc2cc(=O)oc3cc(C)c(Cl)cc23)c(C)o1 | -6.0 | -3.0
Cc1cc(C(F)F)c2c3ccccc3n(C)c2n1 | 22.5 | 12.5
c1ccc2c(c1)sc1nnc(Sc3ncnc4sc5c(c34)CCCC5)n12 | 17.0 | 6.0
CC(C)(C)c1ccc(COC(=O)C2=COCCO2)cc1 | 12.5 | 3.0
Cc1noc(C)c1COc1ccc(C(=O)OCC(=O)N(C)C2(C#N)CCCCC2)cc1 | 1.5 | -1.0
CC1CC2C3CCC4=CC(=O)C=CC4(C)[C@@]3(Cl)C(O)CC2(C)C1(O)C(=O)CO (some centres not stated) | 56.5 | 8.5
CNC(=O)NC(=O)CN1C(=O)c2ccccc2C1=O | 14.5 | 10.5

Additional results
SMILES | BmaI1 | BmaI1 counterscreen
O=S1(=O)CC(c2ccccc2)CS(=O)(=O)C1CC1S(=O)(=O)CC(c2ccccc2)CS1(=O)=O (configuration not stated) | 13.0 | 6.5
Oc1c(CN2CCOCC2)cc(Cl)c2cccnc12 | -64.5 | -84.5
CCc1noc(C)c1C(=O)OCC(=O)Nc1ccc(NC(C)=O)cc1 | 0.5 | 6.5
CCC(C)Sc1ncnc2sccc12 (configuration not stated) | 4.5 | 0.5
Cc1noc(C)c1CSc1ncccc1C(=O)N1CCCC1c1cccs1 (configuration not stated) | 14.5 | 5.5
O=C1CCC2(C(=O)O)c3[nH]c4ccccc4c3CCN12 (configuration not stated) | 5.0 | 8.0
Cc1nn(Cc2ccccc2Cl)c2sc(C(=O)NCCCn3ccnc3)cc12 | 23.5 | 30.5
CCN(CC)C(=O)c1ccc(NS(=O)(=O)CC)cc1 | 11.0 | 4.5
O=C(O)CSCC(=O)N1Cc2ccccc2CC1C(=O)O (configuration not stated) | 16.0 | -2.0
NC1=NC2(CCCCC2)n2c(nc3ccccc32)N1 | 31.0 | 85.5
COc1ccc(Cl)cc1NC(=O)c1sc(=S)n(C)c1N | 55.5 | 3.0
NC(=O)CSc1nc(-c2ccccc2)cs1 | 11.5 | 5.5
CCC(C)C(NC(N)=O)C(=O)Nc1cccc(Cl)c1 (configuration not stated) | 5.5 | 5.0
CCC(CC)c1nnc(NC(=O)C2COc3ccccc3O2)s1 (configuration not stated) | 25.5 | 11.0
O=S(=O)(c1ccc(NCC2CCCO2)nc1)N1CCC(Cc2ccccc2)CC1 (configuration not stated) | 13.0 | 4.0
COC(=O)c1c(CSc2nnc(-c3cc(OC)c(OC)c(OC)c3)o2)nc2ccccc2c1C | -6.0 | -6.5
CC(=O)N1CCN(S(=O)(=O)c2cccc(C(=O)OCc3cc(Cl)cc4c3OCOC4)c2)CC1 | 21.5 | 4.5
c1ccc2c(c1)OCC(CSc1nnc3ccccn13)O2 (configuration not stated) | 12.5 | 7.0
Cc1c(Cl)cnc(NC(=O)COC(=O)/C=C/c2cccn2C)c1Cl | 11.0 | 7.0
Cc1cc(C)c2c(c1)NC(=O)C21NNc2ccccc2O1 (configuration not stated) | 40.5 | 28.5

3 entries from above, as labelled records.
Cc1c(Cl)cnc(NC(=O)COC(=O)/C=C/c2cccn2C)c1Cl
  BmaI1 = 11.0
  BmaI1 counterscreen = 7.0

NC(=O)CSc1nc(-c2ccccc2)cs1
  BmaI1 = 11.5
  BmaI1 counterscreen = 5.5

CC(=O)N1CCN(S(=O)(=O)c2cccc(C(=O)OCc3cc(Cl)cc4c3OCOC4)c2)CC1
  BmaI1 = 21.5
  BmaI1 counterscreen = 4.5

Continuation:
SMILES | BmaI1 | BmaI1 counterscreen
CN(CC1COc2ccccc2O1)C(=O)c1cc(=O)[nH]c2ccccc12 (configuration not stated) | 13.0 | 2.5
CC1CN(Cc2nc(N3CC(C)OC(C)C3)c3c4c(sc3n2)CCCC4)CC(C)O1 (configuration not stated) | 16.5 | 4.5
CC(OC(=O)c1ccco1)C(=O)Nc1ccc(C(F)(F)F)cc1 (configuration not stated) | 8.5 | 14.0
COc1cccc(N2CCN(CC(=O)c3c(N)n(C)c(=O)n(C)c3=O)CC2)c1 | 8.5 | 4.5
CCN(C(=O)[C@@H]1CCCN1C(=O)c1cccs1)c1nc2cc(Cl)ccc2s1 | 13.5 | 4.5
CCC(C)/C(C)=N/Nc1ccc(Cl)cc1 (configuration not stated) | 13.5 | 19.0
COc1ccc(-c2coc3cc(OC)cc(O)c3/c2=N\N)cc1 | 10.0 | -4.0
Cc1cc(C(=O)COC(=O)c2ccc(NC(=O)CC#N)cc2)c(C)n1C1CC1 | 3.5 | -2.0
CC(NC1CCCCCCC1)C(=O)Nc1ccc(S(N)(=O)=O)cc1 (configuration not stated) | 3.5 | 0.5
O=c1[nH]c(CSc2ncnc3sccc23)nc2sc3c(c12)CCCC3 | 6.5 | 5.5
Cc1onc(-c2ccccc2)c1C(=O)NC1C(=O)N2C1SC(C)(C)C2C(=O)O (configuration not stated) | 7.0 | 17.0
O=C(COC(=O)c1ccc2[nH]c3c(c2c1)CCCC3)NCc1ccco1 | 14.0 | 3.0
CC1CC(C)CN(CC(=O)Nc2ccnn2C(C)C)C1 (configuration not stated) | 12.5 | 6.5
CCOC(=O)c1oc2ccccc2c1CSc1nnc2n(Cc3ccc(C)cc3)c(=O)c3ccccc3n12 | -3.5 | 0.5
O=C(CN1C(=O)C2CC=CCC2C1=O)Nc1ccc(S(=O)(=O)NC2=NCCCCC2)cc1 (configuration not stated) | 4.0 | -4.0
CC(COc1ccccc1Cc1ccccc1)N1CCCCC1 (configuration not stated) | 4.5 | 1.0
COc1ccccc1N1CCN(C(C)C(=O)Nc2ccccc2-c2ccccc2)CC1 (configuration not stated) | 1.0 | -2.0
N#CCn1c(CSc2nc3cc(Cl)ccc3n2Cc2ccccc2)nc2ccccc2c1=O | 22.0 | 17.5
O=S(=O)(c1ccc(NCCSCc2ccco2)nc1)N1CCCC1 | 7.5 | 1.0
CC(NC(=O)NC12CC3CC(CC(C3)C1)C2)C(=O)O (configuration not stated) | 12.0 | 11.5
O=C(CCCSc1nnc(-c2ccco2)n1-c1ccccc1)c1ccccc1 | 23.0 | 11.0
CCN(CC(=O)Nc1ccc(NC(C)=O)cc1)CC(=O)Nc1cc(C)on1 | 7.5 | 8.0
CC1Cc2ccccc2N1C(=O)COC(=O)c1ccccn1 (configuration not stated) | 8.0 | -2.0
c1csc(-c2nc(SCC3COc4ccccc4O3)n[nH]2)c1 (configuration not stated) | -0.5 | 1.0
CN(C)S(=O)(=O)c1ccc(C(=O)N2CCN(C(=O)c3ccccc3)CC2)cc1 | -11.5 | -4.0
CN1CCc2nc(NC(=O)Cc3coc4cc5c(cc34)CCC5)sc2C1 | 15.0 | 10.0
O=C1CCN(C(=O)CCCSc2nc3ccccc3[nH]2)CC1 | 3.0 | 2.5
CCS(=O)(=O)N1Cc2ccccc2CC1C(=O)N=c1sc2ccccc2n1C (configuration not stated) | 17.5 | 7.5
CCOC(=O)C1=C(C)NC(C)=C(C(=O)OCC)C1C(=O)OCN1C(=O)c2ccccc2C1=O | 2.5 | 0.5
O=C(c1ccccn1)N1CCc2ccccc2C1 | 11.5 | 0.5
C=CCn1c(SCC(=O)Nc2sc3c(c2C(=O)OC)CCC3)nnc1-c1cccnc1 | 23.0 | 6.0
CC1CCN(CCCC(=O)c2ccc(F)cc2)CC1 | 6.0 | 13.5
NC(=O)c1ccccc1OCC(=O)N1CCC(Cc2ccccc2)CC1 | 12.5 | 4.0
COc1ccccc1/C=N/OCn1nnc2ccccc2c1=O | 8.0 | 10.0
O=C1Cc2ccccc2C(=O)N1Cc1ccccn1 | 102.0 | 41.5
Cn1c(N)c(C(=O)CN2CCN(S(=O)(=O)c3ccccc3C(F)(F)F)CC2)c(=O)n(C)c1=O | 11.5 | 11.5
C[C@H](NC(=O)c1ccco1)C(=O)Nc1ccc2oc3ccccc3c2c1 | 13.5 | 0.0
Cc1ccc(C)c(C(=O)CCC(=O)NCc2ccc3c(c2)OCO3)c1 | -0.5 | -4.0
CCSc1nnc(-c2cccc(Cl)c2)n1CC | -1.0 | -5.0
CN1/C(=C\C=N\c2ccccn2)C(C)(C)c2ccccc21 | 13.5 | 8.5
COCCN(Cc1nc2ccccc2c(=O)[nH]1)C(=O)c1ccc(S(C)(=O)=O)cc1 | 2.0 | 2.5
Cc1cc(C)n(-c2ccc(CSc3nnc(-c4ccc(OC(F)F)cc4)o3)cc2)n1 | 3.0 | -1.5

A portion of the library; rates above refer to the full screens.
